A1 inh: inhibitors of the anti-apoptotic protein A1, read as caspase activation | MEF A1-2A-BIM cells, Caspase-Glo 3/7 luminescence, 3 h; percent of clofoctol response, vehicle zero | caspase activation, % (test concentration not listed) | 330,000 compounds, 0.066% hits | AID 2462;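 active = over half of replicate activation scores above 10%, or exactly half above 10 with the replicate mean above 10; inconclusive = replicate mean below 10 yet half the replicates above 10; inactive = over half of replicates below 10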;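 also: wells of about 30 µL received 50 nL stock; many hits fall short of the cut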
Beta apoptosis: beta cell apoptosis inhibition. INS-1E cytokine-induced death, ATP luminescence, 48 h; percent of positive-control rescue, neutral wells zero. protection from apoptosis, % (test concentration not listed). 300,000 compounds, 0.8% hits;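 active = all replicates at 75% or more, or half of them and the mean; inconclusive = half reach 75% but not the mean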;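 also: 0% = cytokine-treated negative control wells and 100% = positive control rescue; higher means more ATP so stronger rescue from cytokine killing; wells of about 40 µL received 100 nL stock; the first replicate is given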
UCH37 inh: blocks the human deubiquitinase UCH37. Q9Y5K5. AID 588478. purified proteasome/UCH37, Ub-AMC cleavage fluorescence. inhibition, % (no concentration beside the values). 330,000 compounds, 0.33% hits;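 active = mean of two replicates above 20%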;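 also: 0% = compound-free wells with enzyme and 100% = wells lacking proteasome; stock transfer was 100 nL into about 20 µL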
Target sequence (Q9Y5K5 whole entry, looked up): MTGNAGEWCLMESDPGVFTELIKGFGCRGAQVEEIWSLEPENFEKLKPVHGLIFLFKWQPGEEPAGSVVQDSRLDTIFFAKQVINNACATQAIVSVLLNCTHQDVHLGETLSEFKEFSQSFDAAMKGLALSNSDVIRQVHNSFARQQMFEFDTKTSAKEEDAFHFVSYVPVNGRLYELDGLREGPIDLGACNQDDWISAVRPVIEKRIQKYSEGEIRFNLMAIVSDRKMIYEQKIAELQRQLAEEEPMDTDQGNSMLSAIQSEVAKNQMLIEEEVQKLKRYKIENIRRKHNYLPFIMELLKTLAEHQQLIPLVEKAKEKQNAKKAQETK
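System: Proteasome-associated human UCH37 deubiquitinase; Input: 0.15 nM proteasome in added enzyme buffer; Also added: Ub-AMC substrate from 1 µM stock; Incubation: 30 min compound-proteasome preincubation then 25 min substrate reaction, room temperature; Detection: fluorescence, ex 355 nm, em 460 nm; Read-out: % inhibition of Ub-AMC cleavage fluorescence; Benchmarks: no-proteasome and no-compound wells.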
FGF22 binding: shifts melting point of recombinant human FGF22 | recombinant FGF22 thermal shift, SYPRO orange fluorescence; percent of sucrose octasulfate shift, DMSO zero | calls only at 9.99 µM | Q9HCT0 | AID 651658 | 340,000 compounds, 1.5% hits;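 active = melting point raised past a set limit in the mean and every replicate; inconclusive = no clear call; three in four hits are not shown here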
Target sequence (Q9HCT0 whole entry, looked up): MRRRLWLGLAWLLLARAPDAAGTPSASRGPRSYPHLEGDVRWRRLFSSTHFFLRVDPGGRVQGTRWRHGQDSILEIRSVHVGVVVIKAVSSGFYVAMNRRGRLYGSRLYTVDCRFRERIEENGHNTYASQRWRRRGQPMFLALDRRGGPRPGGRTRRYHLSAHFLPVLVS
rRNA inh HTS: inhibitors of bacterial rRNA selective over humanized ribosomes. E. coli WT GFP vs humanized-ribosome RFP mutants, fluorescence, 24 h; hits give low values; DMSO median 0, no signal -100. GFP signal change (wild-type ribosome), % (concentration not given with the values). 350,000 compounds, 1.6% hits;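 active = significant combined selectivity score with lowered wild-type GFP, culture density cut under 30%, mutant RFP and density less affected; inactive = any of these conditions unmet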; also: one replicate is shown; some compounds called inactive have numbers as strong as hits
T cruzi repl: T. cruzi replication inhibition; T. cruzi beta-gal in NIH3T3, luminescence, 90 h; inhibition, % (test concentration not listed); 300,000 compounds, 1.4% hits; AID 1885;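 active = mean inhibition across valid replicates above about 55%, limit read from the data; inconclusive = mean below that limit but half or more replicates reach it; inactive = mean below it, under half of replicates reach it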;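 also: signal also drops with host cell toxicity which is not excluded here; 0% = plate median of DMSO wells and 100% = zero luminescence signal; higher percent means less beta-gal luminescence so fewer parasites; stock transfer was 50 nL into about 50 µL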
E coli growth: E. coli growth inhibition; 330,000 compounds, 0.21% hits; OD600 absorbance (test concentration not listed); Escherichia coli growth, OD600, 23 h; hits give low values; AID 1053175;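 active = OD600 absorbance below the run mean of sample wells minus 3.6 SD, in any replicate, cut at about 0.56 in these data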;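 also: stock transfer was 300 nL into about 60 µL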
MLL AF4-AF9 inh: MLL-AF4/AF9 protein interaction inhibition. AID 651704. AlphaScreen, biotin-AF4 peptide binding to FLAG-AF9. inhibition, % at 10 µM. P42568. 350,000 compounds, 0.47% hits;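 active = every replicate reaching a set inhibition limit, whatever the replicate mean, cut at about 25% in these data; inconclusive = mean inhibition reaches that limit but some replicates miss it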;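 also: 0% = plate neutral control median and 100% = total signal loss; the record names both 10 and 1 µM as test concentration; the first replicate is given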
Target sequence (P42568 whole entry, looked up): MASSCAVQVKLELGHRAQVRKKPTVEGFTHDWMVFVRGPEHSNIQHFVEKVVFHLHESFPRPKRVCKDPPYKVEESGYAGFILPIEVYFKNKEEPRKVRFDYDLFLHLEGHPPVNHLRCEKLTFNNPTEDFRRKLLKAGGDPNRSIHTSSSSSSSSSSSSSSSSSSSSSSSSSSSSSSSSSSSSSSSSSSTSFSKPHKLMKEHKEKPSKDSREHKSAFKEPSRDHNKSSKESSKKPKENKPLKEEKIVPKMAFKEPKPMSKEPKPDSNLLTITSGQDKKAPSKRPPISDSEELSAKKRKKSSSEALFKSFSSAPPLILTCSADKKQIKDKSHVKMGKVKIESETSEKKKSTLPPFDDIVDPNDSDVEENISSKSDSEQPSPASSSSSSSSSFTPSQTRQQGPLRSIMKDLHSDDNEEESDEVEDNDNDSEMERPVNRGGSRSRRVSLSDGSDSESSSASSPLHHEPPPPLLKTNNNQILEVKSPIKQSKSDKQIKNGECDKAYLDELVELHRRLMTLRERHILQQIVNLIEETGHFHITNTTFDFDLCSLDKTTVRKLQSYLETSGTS
rRNA inh HTS OD600: further read-out of rRNA inh HTS, marked with its call; OD600 change, %; measured here: OD600 growth;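 optical density of the mix in the first replicate; 0 = DMSO median and -100 = no signal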
rRNA inh HTS RFP: also measured in rRNA inh HTS; calls as there; RFP signal change, %; measured here: RFP humanized mutant strains;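 first replicate; 0 = DMSO median and -100 = no signal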
An asterisk follows results filed as active; i = inactive; ? = inconclusive; nt = no result given. A portion of the library; the hit share may differ from the screen's.

SMILES	A1 inh	Beta apoptosis	UCH37 inh	FGF22 binding	rRNA inh HTS	rRNA inh HTS OD600	rRNA inh HTS RFP	T cruzi repl	E coli growth	MLL AF4-AF9 inh
O=C(Nc1ccc(S(=O)(=O)NCC2CCCO2)cc1)c1cnccn1 (stereo not given)	-0.5	-6	5.0	i	0	0	-11	-4	0.69	-1.1
Cc1ccnc(NC(=O)c2ccc3[nH]c(=O)c(=O)[nH]c3c2)c1	-0.3	-3	-9.4	i	-8	3	4.5	-6	0.73	-6.9
Cc1ccc(C(=O)CCC(=O)OCC(=O)NNC(=O)c2ccccc2Cl)cc1	-0.3	-8	2.9	i	-7	4	0.6	nt	0.71	-1.6
COc1ccc(N2C(=O)C3CCCN3C2c2cc(OC)c(OC)c(OC)c2)cc1 (stereo not given)	1.2	-6	1.1	i	14	10	-0.3	-13	0.65	-4.7
COc1ccc2c(c1)c(CCNNC(=O)C(C)(C)C)c(C)n2C(=O)c1ccc(Cl)cc1	0.8	7	3.4	i	0	-6	-1.2	29	0.69	2.9
O=C(COC(=O)c1cccc([N+](=O)[O-])c1)c1ccc(OCc2ccccc2)cc1	-1.9	5	2.7	i	13	15	-4.8	-18	0.69	0.8
COc1ccc(-c2ccc(NCCN3CCOCC3)nn2)cc1OC	-0.7	-5	4.6	i	1	5	-0.6	-1	0.65	0.6
COc1cccc(NC(=O)CCN2C(=O)c3ccc([N+](=O)[O-])cc3C2=O)c1	0.7	-7	-0.5	i	2	3	1.1	-7	0.68	-1.7
CCOc1ccc(Oc2ccc(NC(=O)[C@@H](NC(N)=O)[C@@H](C)CC)cc2)cc1	0.9	-9	1.5	i	11	8	9.0	-3	0.69	1.3
CC(=O)NCCNC(=O)c1cc(-c2cccc3ccccc23)nc2ccccc12	0.9	3	-16	i	2	0	0.4	-9	0.68	0.1
COCCSc1ccccc1C(=O)Nc1cc([N+](=O)[O-])ccc1OC	0.4	3	5.7	i	9	8	4.1	-1	0.66	-1.6
COc1cccc(CNC(=O)c2cccc(Br)c2)c1	0.2	-3	3.2	nt	nt	nt	nt	-24	0.66	nt
CCn1c(=S)[nH]c2cc(S(=O)(=O)N3CCOCC3)ccc21	-0.6	1	3.7	i	0	3	2.5	nt	0.74	-0.9
O=C(Nc1nccs1)c1ccc(S(=O)(=O)N2CCOCC2)cc1	0.6	-1	4.5	i	2	11	-4.6	1	0.71	1.0
CC(NC(=O)C(NC(=O)C(Cc1c[nH]c2ccccc12)NC(=O)OC(C)(C)C)C(C)C)C(N)=O (stereo not given)	0.3	nt	3.2	i	10	19	2.8	-2	0.67	2.2
CCN(CC)S(=O)(=O)c1ccc(NC(=O)CSc2nc3nc(C)cc(C)c3c(=O)[nH]2)cc1	nt	nt	-3.7	i	-29	-49	-5.5	nt	0.72	?
COc1ccc(NC(=O)COc2ccccc2)cc1Cl	2.1	3	-0.2	i	-1	-5	0.7	1	0.62	-5.3
COc1cccc(/C(O)=C/c2nc3ccc(C(=O)NCCc4ccc(Cl)cc4)cc3[nH]c2=O)c1	nt	nt	5.3	i	nt	nt	nt	8	0.7	2.5
COc1ccccc1C(=O)NCC(=O)N=Nc1c(O)n(C(C)C)c2ccccc12	-0.2	1	6.1	i	-6	-2	0.3	4	0.7	-2.3
CCOC(=O)Nc1ccc(C(N)=O)cc1	1.5	5	0.4	nt	nt	nt	nt	-19	0.68	nt
O=C(CN1C(=O)CC(c2ccccc2)S(=O)(=O)c2ccccc21)N1CCCCC1 (stereo not given)	0.5	3	3.3	nt	9	3	2.0	-7	0.69	0.2
Cc1ccc(Oc2ccc(S(=O)(=O)NCC(C)(C)N3CCOCC3)cc2)cc1	0.1	1	4.2	i	-4	-3	7.2	-1	0.66	-0.6
O=[N+]([O-])c1cc(S(=O)(=O)Nc2ccccc2)ccc1N1CCN(c2ccccc2)CC1	-1.0	14	1.4	i	-17	-19	2.3	13	0.73	10
Nc1cc(=O)[nH]c(SCC(=O)NCCC2=CCCCC2)n1	-1.1	0	1.5	nt	0	0	0.2	nt	0.68	7.6
COc1ccc(OC)c(S(=O)(=O)NC2CC2)c1	0.9	-5	0.7	i	6	19	-1.0	-16	0.65	-3.6
Further results
SMILES	A1 inh	Beta apoptosis	UCH37 inh	FGF22 binding	rRNA inh HTS	rRNA inh HTS OD600	rRNA inh HTS RFP	T cruzi repl	E coli growth	MLL AF4-AF9 inh
O=C(O)c1ccc(-n2nnc3ccccc32)c([N+](=O)[O-])c1	-0.9	-6	5.4	i	5	12	0.2	-6	0.66	-6.3
OCCNc1nc(NCCC2=CCCCC2)nc(N2CCOCC2)n1	1.1	11	3.4	nt	nt	nt	nt	1	0.71	nt
O=C(O)c1ccccc1Nc1ccccc1C(=O)O	nt	nt	6.2	i	24	14	-6.7	-10	0.71	-0.6
CCOc1ccccc1NC(=O)C1CCN(S(C)(=O)=O)CC1	0.5	-3	nt	i	-1	0	-4.5	-4	nt	-0.4
Cc1cc(NS(=O)(=O)c2ccc(C3CCCCC3)cc2)no1	0.2	0	2.0	nt	2	-7	0.7	17	0.64	-21
CC(C)CCOc1ccc(C(=O)NCC(c2cccs2)N2CCOCC2)cc1 (stereo not given)	0.9	3	6.2	i	0	4	-0.4	7	0.69	-1.6
CC(=O)c1ccc(-c2nc3c4ccccc4ccn3c2C(C)=O)o1	0.0	21	-19	nt	nt	nt	nt	4	0.79	nt
COC(=O)c1cc(Br)cn1S(=O)(=O)c1ccccc1	1.6	nt	0.6	i	6	10	0.3	12	0.62	-1.2
Cn1c(Cc2cccs2)nnc1SCC(=O)N1CCc2ccccc21	-1.1	-5	0.4	nt	nt	nt	nt	0	0.71	nt
Cc1nn(Cc2cccc3ccccc23)c(C)c1NC(=O)c1cccnc1	-0.9	-8	7.1	i	3	4	-3.0	-5	0.67	-1.4
CCOc1ccc(C(C)NC(=O)CCC(=O)O)cc1 (stereo not given)	0.7	-1	1.3	nt	nt	nt	nt	-8	0.71	nt
COc1cccc2cc(C(=O)N3CCN(c4ccccc4F)CC3)c(=O)oc12	0.1	-6	-0.6	nt	nt	nt	nt	-4	0.75	nt
CCCOc1ccc(C(=O)NCC(c2cccs2)N(C)C)cc1 (stereo not given)	0.4	1	-0.8	i	8	3	-1.1	0	0.67	-0.2
CCC(C)[C@H]1CN=C(N)N1CC1CCCCC1 (stereo not given in full)	-0.2	39	0.7	nt	nt	nt	nt	31	nt	nt
CC(C)(C)c1ccc(-c2nnc(SCCC#N)n2C2CCCC2)cc1	0.9	nt	1.9	nt	nt	nt	nt	46	0.79	nt
O=C(c1cccc(S(=O)(=O)N2CCOCC2)c1)N1CCOCC1	0.0	-5	3.7	nt	nt	nt	nt	3	0.66	nt
O=C(Nc1cccc(Cl)c1)c1cncn1-c1ccc(F)cc1	0.8	0	4.4	i	-1	-13	3.9	3	0.67	-3.1
C#CCN1C(=O)S/C(=C/C=C/c2ccc(N(C)C)cc2)C1=O	-1.5	-5	3.2	nt	nt	nt	nt	nt	0.73	nt
COC(=O)c1cc2c(C)cc3ccc(C)cn3c-2c1C(=O)OC	1.2	1	3.2	nt	nt	nt	nt	13	0.74	nt
CCC1CCc2sc(C(=O)N3CCN(c4ccccn4)CC3)cc2C1 (stereo not given)	1.0	-7	3.7	i	-2	-4	2.0	-12	0.68	0.2
Cc1ccccc1NC(=O)C1CCCN(S(=O)(=O)c2ccc3c(c2)C(C)(C)C(=O)N3C)C1 (stereo not given)	-0.1	4	3.7	i	1	-5	-2.1	-11	0.74	-10.0
CCCCn1c(N)c(N(Cc2ccccc2OC)C(=O)c2ccc([N+](=O)[O-])s2)c(=O)[nH]c1=O	0.7	-2	4.1	i	1	16	-1.9	49	0.67	-27
O=C(C[n+]1ccsc1)c1ccccc1	0.8	0	-1.5	i	-20	-36	-6.9	-27	0.69	-5.9
CC(C(=O)NCCS(=O)(=O)c1ccc(Cl)cc1)S(=O)(=O)c1ccc(Cl)cc1 (stereo not given)	-0.3	-4	-0.5	i	10	12	0.8	-5	0.67	-0.2
Cc1cc(C)n(CC(=O)N2CCCC(N3CCN(c4ccc(F)cc4)CC3)C2)n1 (stereo not given)	0.0	-3	2.4	i	nt	nt	nt	0	0.66	-0.4
Next part.
SMILES	A1 inh	Beta apoptosis	UCH37 inh	FGF22 binding	rRNA inh HTS	rRNA inh HTS OD600	rRNA inh HTS RFP	T cruzi repl	E coli growth	MLL AF4-AF9 inh
COc1cccc(C(=O)NCCSc2ccc(C)cc2)c1	0.5	-1	1.0	i	-40	-46	-6.0	9	0.69	-2.2
Cc1cc(C)n(CCN(C)c2nc3nonc3nc2N2CCCCC2)n1	3.1	-6	1.8	nt	9	5	0.0	-20	0.7	0.7
CC(C)(C)NCc1ccc(OCc2cccs2)cc1	-0.6	0	-0.9	nt	12	2	-3.9	nt	0.68	1.5
COc1cccc(/C(O)=C/c2nc3ccc(C(=O)NCCc4cccc(C)c4)cc3[nH]c2=O)c1	0.2	10	3.6	nt	nt	nt	nt	-9	0.74	nt
CCCN1C(=O)C(NS(=O)(=O)c2ccc(N)cc2)(C(F)(F)F)C(C(=O)OC)=C1C (stereo not given)	0.0	-3	0.2	nt	nt	nt	nt	8	0.71	nt
CSC1=C(C#N)C(c2ccc3c(c2)OCO3)C2=C(CCCC2=O)N1 (stereo not given)	0.1	-6	1.5	nt	nt	nt	nt	7	0.69	nt
O=C(CSCc1cc(=O)n2nc(C3CC3)sc2n1)Nc1ccc(F)cc1	0.4	-15	2.3	i	8	2	0.2	9	0.72	-6.0
COc1ccc(/C=N/NC(=S)Nc2cc(C(F)(F)F)ccc2Cl)cc1	0.0	14	nt	i	7	4	0.4	-38	nt	-0.7
O=c1c2ccccc2nc(COc2ccccc2)n1/N=C/c1ccc(O)cc1O	-0.5	87*	nt	i	-31*	-11*	2.1*	57*	nt	6.4
O=C(O)c1cc(S(=O)(=O)Nc2cccc(Oc3ccccc3)c2)ccc1Br	-2.0	3	-0.5	i	-34	-31	1.6	-19	0.63	-4.3
CC(C)Cn1cnc2c1c(=O)n(CC(O)c1ccccc1)c(=O)n2CC(C)C (stereo not given)	0.6	2	3.8	nt	nt	nt	nt	-7	0.65	nt
O=C(O)c1nccnc1C(=O)Nc1ccc(Oc2c(Cl)cccc2Cl)nc1	-0.6	8	6.3	i	13	9	3.3	10	0.67	3.5
COc1ccccc1NC(=O)Cn1nnc(-c2ccccc2NC(=O)c2cnccn2)n1	-0.4	-4	-4.0	i	16	16	1.5	0	0.72	0.3

Retrieved by structure from the list above (2):
SMILES	A1 inh	Beta apoptosis	UCH37 inh	FGF22 binding	rRNA inh HTS	rRNA inh HTS OD600	rRNA inh HTS RFP	T cruzi repl	E coli growth	MLL AF4-AF9 inh
CSC1=C(C#N)C(c2ccc3c(c2)OCO3)C2=C(CCCC2=O)N1 (stereo not given)	0.1	-6	1.5	nt	nt	nt	nt	7	0.69	nt
CC(C)(C)NCc1ccc(OCc2cccs2)cc1	-0.6	0	-0.9	nt	12	2	-3.9	nt	0.68	1.5

Screens: PubChem BioAssay, several laboratories
